# Screening results as filed in PubChem.
# TAR Tat displ: TAR RNA-Tat peptide displacers, HIV-1, primary screen, biochemical, FRET, FAM/TAMRA-labeled Tat | HIV-1 TAR RNA, Tat peptide displacement FRET; active compounds read high | z-score (no concentration beside the values) | actives 0.6% (n = 100,000);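 further: score is relative to mean and SD of negative controls; some compounds called inactive have numbers as strong as hits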
# CDC25B-CDK2 inh: primary biochemical HTRF screen for blockers of M-phase inducer phosphatase 2 binding to CDK2/cyclin A; HTRF CDC25B-CDK2/CyclinA binding, anti-His/anti-Flag; active compounds read high; z-score (test concentration not listed); actives 0.72% (n = 94,000); AID 1259370, 2018;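 further: score is relative to mean and SD of negative controls; strong numbers were not always called active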
# Starred values were filed as active, the others as inactive; x = not tested or not shown.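 How the source made its calls: active means z-score from 3 up in half or more of its runs; inactive means the rest.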
# Every second line gives: TAR Tat displ	CDC25B-CDK2 inh
Cc1cc2c(cc1S(=O)(=O)Nc1ccc(C(C)C)cc1)OCC(=O)N2
 : 2.02	x
O=C(Nc1cccc(F)c1)c1c2c(nc3ccccc13)C(=O)N(C1CCCCC1)C2
 : 0.03	x
CCOCCCNC(=O)CN(C)c1nn2c(=O)cc(C)nc2s1
 : 1.64	-0.82
Cc1ccc(-n2nnc(-c3nc(-c4ccc(Cl)cc4)no3)c2C)cc1F
 : 0.65	x
O=S(=O)(c1ccc(Cl)cc1)c1nnn2c1nc(Cl)c1ccccc12
 : x	-1.58
CC(=O)N1N=C(COc2ccc(Br)cc2)OC1c1ccc(C(C)C)cc1 (stereo unspecified)
 : 1.46	x
CCCOC(=O)C1=C(C)NC2=C(C(=O)CC(C)(C)C2)C1c1ccncc1 (stereo unspecified)
 : 1.52	-0.92
O=C(c1cc2ccccc2o1)N1CCN=C1SCc1cccc(F)c1
 : x	-1.24
CC(Sc1nnc(-c2ccco2)n1Cc1ccccc1)C(=O)O (stereo unspecified)
 : 0.47	-0.56
CCCOc1ccc(NC(=O)C2=CC(=O)N3CCN=C3S2)cc1Br
 : -0.44	-0.59
O=C(Cn1c(=O)cnc2cc(S(=O)(=O)N3CCCCC3)ccc21)NCc1ccco1
 : 1.01	0.18
O=c1sc2ccccc2c(N2CCN(c3ccccc3)CC2)c1[N+](=O)[O-]
 : 2.5	-2.34
Cc1cc(Nc2ccccc2Cl)c2ccccc2n1
 : x	-1.7
Clc1ccc(-c2nnc(C(c3ccccc3)N3CCN(c4ccccn4)CC3)o2)cc1 (stereo unspecified)
 : 0.37	x
O=C(NCc1ccc2c(c1)OCO2)c1ccc2nc(-c3ccco3)c(-c3ccco3)nc2c1
 : 60.2*	x
Cn1c(SCc2ccc(F)cc2)nc(=O)c2c1NC(=O)CC2c1ccc(F)cc1F (stereo unspecified)
 : -0.67	-1.73
COc1cccc(C2C(C#N)=C(N)Oc3n[nH]c(-c4ccc(C)cc4)c32)c1OC(=O)N1CCOCC1 (stereo unspecified)
 : 1.96	x
CCCCn1c(O)c(C2=Nc3ccccc3SC(c3cc(OC)ccc3OC)C2)c(=O)[nH]c1=O (stereo unspecified)
 : -0.16	-2.16
O=C(/C(=C\C(=O)c1ccco1)c1ccccc1)c1ccccc1
 : x	-2.66
Cc1ccc(C)c(S(=O)(=O)N2CCN(c3nc4ccccc4n4cccc34)CC2)c1
 : -0.08	3.33

# Every second line gives: TAR Tat displ	CDC25B-CDK2 inh
O=C(C1CCN(c2ccc(Cl)cc2)C1=O)N1CCCC1 (stereo unspecified)
 : 0.85	x
CC(=O)Oc1ccc2ccccc2c1C1=NN(C(C)=O)C(c2ccccc2Cl)O1 (stereo unspecified)
 : -0.26	x
CCOc1ccc(CN2CCc3nc(N4CCN(c5ncccn5)CC4)ncc3C2)cc1OC
 : 0.42	x
Cc1nc(SCc2ccccc2F)cc(-c2ccccc2)n1
 : 1.18	1.2
CC(=O)Nc1sc2c(c1C(=O)NC(C)C)CCCC2
 : 0.83	-1.87
CS(=O)(=O)Nc1nc2ccc(NC(=O)Cc3cccs3)cc2s1
 : 16.1*	x
COc1ccc(OC)c(C(=O)CC2(O)C(=O)Nc3ccc(Br)cc32)c1 (stereo unspecified)
 : 1.15	x
CCC1CCc2nc3sc(C(=O)Nc4cc(OC)c(OC)c(OC)c4)c(N)c3cc2C1 (stereo unspecified)
 : x	-1.24
O=C(C1CCCN(c2nn3c(=O)c4c(nc3s2)CCCC4)C1)N1CCN(c2ccccn2)CC1 (stereo unspecified)
 : 1.53	x
CC1CSc2ccc(S(=O)(=O)N3CCN(C4CCCC4)CC3)cc2NC1=O (stereo unspecified)
 : 1.52	x
CCSCCOC(=O)C1=C(C)NC2=C(C(=O)CC(C)(C)C2)C1c1cccc(O)c1 (stereo unspecified)
 : 2.78	-1.06
Cc1ncc(CO)c(/C=N/O)c1O
 : x	-0.81
CC1(C)CC(=O)C2=C(C1)Nc1nc(-c3cccc(Cl)c3)nn1C2c1ccc2c(c1)OCO2 (stereo unspecified)
 : 1.18	0.33
CCOC(=O)c1c(C)[nH]c(CCC(=O)NCC2CCCN2CC)c1C (stereo unspecified)
 : 0.83	x
CC1CCCN(c2cc3c(cc2F)c(=O)c(S(=O)(=O)c2ccccc2)cn3C)C1 (stereo unspecified)
 : -0.02	x
Cc1cc(=O)n2nc(N3CCCC(C(=O)NCCC(C)C)C3)sc2n1 (stereo unspecified)
 : 1.73	-0.09
COC(=O)C1=C(C)NC(=O)NC1c1cc2c(cc1Cl)OCO2 (stereo unspecified)
 : x	-1.46
NC(=O)C1(NC2CCCCC2)CCCCC1
 : x	-2.29
Cc1cc(SC(C)C(=O)Nc2ccc(Cl)cc2)ncn1 (stereo unspecified)
 : 0.51	1.57
Cc1c(-c2nnc(N)o2)c2cc(O)ccc2n1C
 : 0.89	1.23

# Every second line gives: TAR Tat displ	CDC25B-CDK2 inh
Cn1ncc2c(Nc3ccccc3)nc(NC3CCCC3)nc21
 : 0.83	x
CCOC(=O)C1CCCCN1S(=O)(=O)c1ccc2c(c1)C(C)(C)C(=O)N2C (stereo unspecified)
 : 0.4	x
N#Cc1c(-c2ccc(Cl)cc2)nc(SCC(=O)OCc2ccccc2)[nH]c1=O
 : -0.94	0.8
Cc1cccc(OCc2nc(-c3ccccn3)no2)c1
 : -0.17	-2.6
COc1cc(C(=O)NNC(=O)Nc2c(-c3c(Cl)cccc3Cl)noc2C)cc(OC)c1OC
 : x	-0.5
Cc1cc(C)c(N=C(NN)N(C)C)cc1C
 : x	-1.93
Cc1cccc(-c2noc(-c3cc(-c4ccc(F)cc4)n[nH]3)n2)c1
 : 0.22	x
O=C(Nc1c2c(nn1-c1ccc(Cl)cc1)CS(=O)(=O)C2)c1cccs1
 : x	-2.17
COc1ccc(Cc2nn3c(C)nnc3s2)cc1OC
 : -0.98	-0.79
O=C(O)C1C2C=CC(O2)C1C(=O)Nc1ccc2c(c1)OCCO2 (stereo unspecified)
 : -0.13	-0.32
O=C1CCSc2ccccc2N1Cc1ccc(F)cc1
 : x	0.82
O=S(=O)(c1ccc(Nc2ncnc3c2nc2n3CCCCC2)cc1)N1CCCCC1
 : -0.21	x
CCOc1ccc2nc(NC(=O)c3cc(=O)c4cc(C)c(C)cc4o3)sc2c1
 : -1.65	-2.3
CS(=O)(=O)N1CCc2cc(C(N)=O)ccc21
 : 2.24	-2.81
CCCn1c2ccccc2c2nnc(SC(CC)C(=O)Nc3cc(C)on3)nc21 (stereo unspecified)
 : -0.8	17.1*
O=C1N=C(c2ccccc2)S/C1=C\c1ccc(-c2ccc([N+](=O)[O-])cc2Cl)o1
 : x	-2.11
CNC(=O)N1c2ccccc2NC2=C(C(=O)CC(C)(C)C2)C1c1ccc(F)cc1 (stereo unspecified)
 : 0.86	x
ONC(=Nc1ccccc1)c1cccnc1
 : x	-2.03
CC1CCCCN1C(=O)CSc1nc2ccccc2c(=O)[nH]1 (stereo unspecified)
 : 1.72	x
Cc1cc(-c2ccc(S(=O)(=O)Nc3ccc(Cl)cc3C)s2)on1
 : 0.71	x

# Every second line gives: TAR Tat displ	CDC25B-CDK2 inh
CCOc1nc(-c2ccc(OC)cc2)ccc1-c1noc(C)n1
 : -0.81	-0.01
CCn1c2c(c(=O)[nH]c1=O)C(c1cccc3ccccc13)C1=C(N2)c2ccccc2C1=O (stereo unspecified)
 : -1.67	0.91
Cc1ccccc1Cn1c(=O)c2c(nc3n2CCN3Cc2ccccc2)n(C)c1=O
 : 1.76	x
S=c1nccc(-c2ccc(-c3cccs3)s2)[nH]1
 : x	-2.13
CCc1ccc(C2C3=C(Nc4c2c(=O)[nH]c(=O)n4CCCOC)c2ccccc2C3=O)cc1 (stereo unspecified)
 : -2.5	0.19
N=C(N)Sc1cnc2ccccc2n1
 : x	-0.38
O=C(c1cc2ccc3cccnc3c2[nH]1)N1CCN(c2ccc(F)cc2)CC1
 : 0.98	x
C#Cc1cccc(NC(=O)c2cccc(C(=O)Nc3cccc(C#C)c3)c2)c1
 : x	-1.4
COc1cc2[nH]c(=S)nc(NCCc3c[nH]c4ccccc34)c2cc1OC
 : x	-1.32
Cn1c(O)c(C2=Nc3ccccc3SC(c3cccc(O)c3)C2)c(=O)[nH]c1=O (stereo unspecified)
 : 2.91	-0.74
CN(C)CCn1c2c(c3ccccc31)CCCn1cnnc1-2
 : 0.61	-0.49
CC1=C(c2ccc(C)c(C)c2)S(=O)(=O)N=C1N1CCCCC1C (stereo unspecified)
 : -0.51	-0.49
COc1cc([C@@H]2c3cc4c(cc3C(O[C@@H]3O[C@@H]5CO[C@@H](c6cccs6)OC5[C@H](O)[C@H]3O)C3COC(=O)[C@@H]32)OCO4)cc(OC)c1O (stereo partly specified)
 : 0.37	x
Cc1cc(C)c2c(=O)c3c(oc2c1)C(=O)N(CCO)C3c1cccc(Br)c1 (stereo unspecified)
 : -0.5	-0.54
O=C(CCc1nc2sc3c(c2c(=O)[nH]1)CCCC3)Nc1ccc(Cl)cc1
 : 0.4	x
Cc1cccc(COc2ccccc2-c2nnc(-c3ccccc3)o2)c1
 : -0.68	x
COc1ccc(-c2nc(C#N)c(N3CCCCC3)o2)cc1
 : 1.12	-0.5
COc1ccc(Br)cc1-c1nc2c(c(=O)[nH]1)Cc1ccccc1O2
 : -4.63	-1.36
COc1cc(NS(=O)(=O)c2ccc(CN3C(=O)c4cccnc4C3=O)s2)cc(OC)c1
 : 0.18	x
CC1=C(c2ccccc2)S(=O)(=O)NC1=NCc1ccc(N(C)C)cc1
 : -0.21	-0.45

# Every second line gives: TAR Tat displ	CDC25B-CDK2 inh
COc1ccc(-c2nc3ccccc3n2C)cc1OC
 : 1.06	1.77
COc1ccc(Cl)cc1S(=O)(=O)NCc1ccccn1
 : -0.32	-0.84
CCCNC(=O)c1noc2c1CCc1sccc1-2
 : 0.65	x
CN1C(C(=O)N2CCN(C(=O)C(C)(C)C)CC2)=CC(c2ccc(F)cc2)=NS1(=O)=O
 : 0.91	-0.81
CCCn1c(=O)c2c(ncn2C)n(CCC)c1=O
 : x	-1.33
CCc1nn(CCCC(=O)N2CC(C)CC(C)C2)c(=O)c2cc3oc(C)cc3n12 (stereo unspecified)
 : 0.72	-0.83
COc1ccc(N2C(=O)CCS2(=O)=O)cc1S(=O)(=O)N1CCN(c2ccccc2F)CC1
 : 2.07	-1.66
CCc1nnc2c(NCCCN3CCN(c4cccc(Cl)c4)CC3)nc3ccccc3n12
 : 2.74	x
CCCCOC(=O)C1=C(C)NC2=C(C(=O)CCC2)C1c1ccc(Br)cc1 (stereo unspecified)
 : 0.08	-1.66
CC(=O)c1cc(-c2ccc(Cl)cc2)oc1C
 : x	-0.71
O=C(COc1ccc(S(=O)(=O)NC2CCCCC2)cc1)NCC1CCCO1 (stereo unspecified)
 : 0.8	1.41
CCCc1[nH]c(=O)c(C#N)c2c1COC(C)(C)C2
 : 0.95	-0.29
Nc1nc2c(c(=O)[nH]1)C(c1cccc(Br)c1)CC(=O)N2 (stereo unspecified)
 : 1.07	0.45
Cc1cccn2c(=O)c3cc(C(=O)NCCc4c[nH]c5ccccc45)n(C)c3nc12
 : 0.83	x
O=C(NCCCN1CCOCC1)C1CCN(c2nnc(N3CCCC3=O)s2)CC1
 : -1.12	-1.4
Cc1ccc(-c2noc(-c3nnn(-c4cccc(Cl)c4)c3C)n2)cc1
 : 0.04	x
Cc1cccc(C)c1NC(=O)CN1CCOCC1
 : x	0.58
O=C1CC2(CCCC2)CC(=O)N1Cc1csc2ccccc12
 : x	-0.61
O=C(C1CCCN(c2ncnc3c2nc2n3CCCCC2)C1)N1CCN(c2ccccc2)CC1 (stereo unspecified)
 : 0.25	x
Nc1ccc(Oc2ccc(Br)cc2)cc1
 : 0.36	1.23

# Every second line gives: TAR Tat displ	CDC25B-CDK2 inh
Cc1cc(C(=O)OCC(=O)c2ccc(Cl)cc2)ccc1[N+](=O)[O-]
 : x	-2.34
COC(=O)c1cc(S(=O)(=O)Nc2ccccc2OC)c[nH]1
 : 3.36	x
Cc1cc(C)c2c(c1)NC(=O)C2(O)CC(=O)c1cccs1 (stereo unspecified)
 : 3.57	0.17
Cc1ccc2nc(NC(=O)c3ccc(S(=O)(=O)N(C)C)cc3)sc2c1
 : x	-1.08
CCOc1ccc(C2C=C(C(=O)O)Nc3nnnn32)cc1Cl (stereo unspecified)
 : 1.2	x
CCCOC(=O)C1=C(C)NC2=C(C(=O)C(C(=O)OC)C(C)C2)C1c1ccc2c(c1)OCO2 (stereo unspecified)
 : 0.64	-2.26
O=C(CSc1nnc2ccc3ccccc3n12)Nc1ccc(S(=O)(=O)N2CCCCC2)cc1
 : 1.14	-0.93
O=[N+]([O-])c1ccc(ONS(=O)(=O)c2ccc(F)cc2)c([N+](=O)[O-])c1
 : x	-1.63
